# Source: PubChem
# 2A Renilla – Primary qHTS Assay for Foot and Mouth Disease Virus Antivirals against NCGC Sytravon and CBC Compound Libraries: Renilla Luciferase Signal | Potency, µM (series often up to 57.5 µM), for inactives: top-dose signal change, negative = less light | HEK cells with a luciferase reporter of 2A StopGo recoding | hit rate 0.32% among 120,000; active means well fitted falling curve with a large enough effect; inconclusive means small, poorly fitted or top-dose-only effect; inactive means no such curve, though single readings can be large or run the other way; further: nearly all actives have a fitted effect of over 55% in size; overnight with compound
# 2A firefly – Primary qHTS Assay for Foot and Mouth Disease Virus Antivirals against NCGC Sytravon and CBC Compound Libraries: Firefly Luciferase Signal; HEK cells with a luciferase reporter of 2A StopGo recoding; Potency, µM (highest dose often 57.5 µM), without a hit: top-dose signal change, negative = less light; hit rate 0.23% among 120,000; AID 1745856, 2022; active = well fitted falling curve with a large enough effect; inconclusive = small, poorly fitted or top-dose-only effect; inactive = no such curve, though single readings can be large or run the other way; further: nearly all actives have a fitted effect of over 60% in size; overnight with compound
# * = called active by the depositor; ? = inconclusive; & = joins results of further samples; [ ] = remark or other dose. On the % scale 0 is the no-effect control and ±100 the full control effect; potency means the concentration at half of the fitted maximal effect. This is a subset (hit frequency here may not be typical).
no. | structure | 2A Renilla | 2A firefly
1 | CC1=C(/C=C/C(C)=C/C=C/C(C)=C/C(=O)O)C(C)(C)CCC1 | 27% | 7%[11.5 µM]
2 | O=c1cc(CN2CCCCC2)c2cc(O)c(-c3ccccc3)cc2o1 | 13% | 81%[activator]
3 | COc1ccc(-c2nc3scc(CCNS(=O)(=O)c4ccc5c(c4)OCCO5)n3n2)cc1OC | 193%[activator] | 0%
4 | C1C2CC3CC1CC(C2)C3NC12CC3CC(CC(C3)C1)C2 (stereo not given) | -2% | 188%[activator]
5 | Cc1cccc(/C=C(/C#N)c2ccc(C(F)(F)F)cn2)c1 | 0% | 36%[activator]
6 | CCCCn1c(=O)n(Cc2ccc(C#N)cc2)c(=O)c2c1ncn2Cc1ccco1 | -8% | -18%
7 | COc1ccc(/C=C(/C#N)c2ccc(Cl)cc2)c(OC)c1C | 44%[activator] | 0%
8 | Cc1ccc(OCC(=O)OCC(=O)NC23CC4CC(CC(C4)C2)C3)cc1C | 4% | 13%
9 | COc1cn(-c2ccccc2)nc1C(=O)OC(C)C(=O)NC1CCCC1 (stereo not given) | 14% | 14%
10 | C=CCOc1cccc(NC(=O)c2ccncc2)c1 | 11% | 33%[activator]
11 | CCS(=O)(=O)N1CCc2cc(C(=O)NC(C)c3ccccc3)ccc21 (stereo not given) | 8% | -1%
12 | Cc1cc(O)c2c(C)c(CC(=O)Nc3nc4ccccc4[nH]3)c(=O)oc2c1 | -17% | 2%
13 | Cc1ccc(CNC(=O)C(=O)c2c[nH]c3ccccc23)cc1 | 0% | 0%
14 | Cc1nnc(N2CCCC(C(=O)Nc3cccc(C(F)(F)F)c3)C2)c2nn(-c3ccccc3)c(C)c12 (stereo not given) | 0% | 21%
15 | CCCCc1nc2ccccc2c(=O)n1-c1cccc(OC)c1 | 4% | 17%
16 | O=C(c1ccncc1)N1CCN(CC2CC=CCC2)CC1 (stereo not given) | -2% | -2%
17 | O=C(Cc1ccc(Br)cc1)Nc1ccc(O)c(-c2nc3ccccc3o2)c1 | -9% | -5%
18 | CN(CC1CCCCC1)C(=O)CN(C)c1ncnc2nc[nH]c12 | -1% | -8%
19 | CN1CCC(N(Cc2ccccc2)c2ccccc2)CC1 | -8% | -2%[11.5 µM]
20 | CN(C(=O)CSc1nc2ccc(NC(=O)COc3ccc(Cl)cc3)cc2s1)c1ccccc1 | -13% | -19%
21 | CCC(C)NC(=O)c1cnn(-c2cccc(F)c2)c1-n1cccc1 (stereo not given) | -1% | -16%
22 | Cc1ccsc1/C=N/N=C(c1ccccc1)c1ccccc1 | 2% | 70%[activator]
23 | COc1cccc(CNC(=O)c2ccc(Oc3ccccc3)cc2)c1 | -3%[1.06 µM] | ?
24 | CCc1nn2c(-c3ccccc3OC)ccnc2c1-c1ccccc1 | 9% | 11%
25 | CC1(C)CC(Nc2ncnc3ccccc23)CC(C)(C)N1 | 11% | 9%

# 3 entries already listed, ordered by length of the SMILES, rising.
no. | structure | 2A Renilla | 2A firefly
22 | Cc1ccsc1/C=N/N=C(c1ccccc1)c1ccccc1 | 2% | 70%[activator]
11 | CCS(=O)(=O)N1CCc2cc(C(=O)NC(C)c3ccccc3)ccc21 (stereo not given) | 8% | -1%
17 | O=C(Cc1ccc(Br)cc1)Nc1ccc(O)c(-c2nc3ccccc3o2)c1 | -9% | -5%

# Later entries:
no. | structure | 2A Renilla | 2A firefly
26 | CCOc1cc(CNCC(O)c2ccccc2)ccc1Oc1nnnn1-c1ccccc1 (stereo not given) | 22% | -9%
27 | Cc1cnc(=O)[nH]c1SCC(=O)Nc1cc(C(F)(F)F)ccc1Cl | -4% | -5%
28 | COc1ccc(C(C)NC(=O)c2c(C)noc2C)cc1OC (stereo not given) | 5% | 5%
29 | O=C(Nc1cnc(-c2ccccc2)nc1)c1ccc(C2SCCCS2)cc1 | 17% | 0%
30 | Cc1ccc2nc(NCc3ccc(F)cc3)c3nncn3c2c1 | 5% | 2%
31 | CCCn1c(N2CCN(CCc3ccccc3)CC2)nc2c1c(=O)[nH]c(=O)n2C | -4% | 0%
32 | CC(=O)Nc1ccc(/C=C/C(=O)N(C)C(C)c2ccc(C)s2)cc1 (stereo not given) | 38%[activator] | 60%[activator]
33 | O=C(Nc1oc2ccccc2c(=O)c1-c1ccc(Cl)cc1)c1ccccc1 | 19% | 51%[activator]
34 | Cc1ccc(Nc2cc(C)nc(-n3nc(C)cc3C)n2)cc1 | -20% | -16%
35 | Cn1c(=O)c2c(nc(NCCc3ccccc3)n2Cc2ccc(Br)cc2)n(C)c1=O | 7% | 6%
36 | CCc1c(C)c2cc3c(c(C)c2oc1=O)OCN(CCc1ccc(OC)c(OC)c1)C3 | -4% | 7%
37 | CCOc1ccccc1NC(=O)C1CCN(S(=O)(=O)c2ccc3[nH]c(=O)oc3c2)CC1 | -3% | -10%
38 | COCCCNS(=O)(=O)c1cc(-c2onc(C)c2C)ccc1OC | -11% | 22%
39 | Cc1cccc(C(=O)Nc2sc3c(c2C(=O)NC(C)C)CCCC3)c1 | -9%&6% | -5%&-21%
40 | Oc1ccccc1C=Nc1cc(C(F)(F)F)ccc1Oc1ccc(Cl)cc1 | -16% | 0%
41 | CCCCSCCCNC(=O)c1cn(C)c2ccc(S(=O)(=O)N3CCCCCC3)cc2c1=O | 0% | -14%
42 | COc1ccc(-c2nc(SCCOc3cc(C)ccc3C(C)C)n3[nH]c(=O)cc3n2)cc1 | -1% | -3%
43 | COc1ccc(Br)cc1COC(=O)COc1ccc(C(C)=O)cc1 | -3% | 1%
44 | Cc1cc(NC(=O)c2ccc3c(c2)N(Cc2cccc(Cl)c2)C(=O)c2ccccc2S3=O)ccc1Br (stereo not given) | -8% | -10%
45 | CC(NC(=O)CCc1ncc(-c2ccc(Cl)cc2)o1)c1ccc(S(C)(=O)=O)cc1 (stereo not given) | -26% | 18%
46 | COc1ccc(Nc2nc3c(S(=O)(=O)c4ccc(Br)cc4)nnn3c3ccsc23)c(OC)c1 | 47%[activator] | -27%
47 | CCN(CC)CCCNc1oc(/C=C/c2ccccc2OC)nc1C#N | -11% | 0%
48 | COc1cc2oc(=O)c(CC(=O)N3CCC(O)(c4ccc(Cl)cc4)CC3)c(C)c2cc1OC | 1% | -3%
49 | COc1ccccc1OCC(=O)c1c(C)[nH]c2ccccc12 | 48%[activator] | 0%
50 | CCc1ccc(S(=O)(=O)Nc2ccc3oc(C)c(C(=O)OCCOC)c3c2)cc1 | 199%[activator] | 1%
51 | COc1ccc(Br)cc1COC(=O)c1ccc(OC)c(OC)c1OC | 54%[activator] | 12%
52 | Clc1cccc(-c2nc(-c3ccncc3)no2)c1 | 3% | 106%[activator]
53 | O=C(CCCc1cccs1)N1CCCC1 | 8% | 138%[activator]
54 | CCN(CC)CCNC(=O)c1ccc(Cn2c(SCc3ccccc3)nc3ccncc32)cc1 | -15% | 8%
55 | Fc1ccc(CCNC(=S)NCc2ccc(Cl)cc2)cc1 | 106%[activator] | 36%[activator]
56 | Cn1c(=O)c2sc3c(c2n(CC(=O)c2ccccc2)c1=O)COC(C)(C)C3 | 4% | -4%
57 | Cc1ncsc1C(=O)NCc1ccc(N2CCCCCC2)nc1 | 13µM* | ?
58 | CCCCCc1ccc(C(=O)CC)cc1 | -11% | 1%
59 | CCOC(=O)c1ccc(CN(Cc2ccccc2C)S(=O)(=O)c2ccc(C(C)(C)C)cc2)cc1 | -2% | -23%
60 | CCCCCn1nc(C(=O)Nc2ccc3c(c2)CCC3)c2ccccc2c1=O | 7% | 60%[activator]
61 | Fc1cccc(COc2ccc(-c3nnco3)cc2)c1F | 36%[activator] | 213%[activator]
62 | COc1ccc(-c2ccc3c(N)c(C(=O)c4ccc(OC)c(OC)c4)sc3n2)cc1 | -15% | 9%

# From no. 38 as far as 62, copied from above:
no. | structure | 2A Renilla | 2A firefly
38 | COCCCNS(=O)(=O)c1cc(-c2onc(C)c2C)ccc1OC | -11% | 22%
39 | Cc1cccc(C(=O)Nc2sc3c(c2C(=O)NC(C)C)CCCC3)c1 | -9%&6% | -5%&-21%
40 | Oc1ccccc1C=Nc1cc(C(F)(F)F)ccc1Oc1ccc(Cl)cc1 | -16% | 0%
41 | CCCCSCCCNC(=O)c1cn(C)c2ccc(S(=O)(=O)N3CCCCCC3)cc2c1=O | 0% | -14%
42 | COc1ccc(-c2nc(SCCOc3cc(C)ccc3C(C)C)n3[nH]c(=O)cc3n2)cc1 | -1% | -3%
43 | COc1ccc(Br)cc1COC(=O)COc1ccc(C(C)=O)cc1 | -3% | 1%
44 | Cc1cc(NC(=O)c2ccc3c(c2)N(Cc2cccc(Cl)c2)C(=O)c2ccccc2S3=O)ccc1Br (stereo not given) | -8% | -10%
45 | CC(NC(=O)CCc1ncc(-c2ccc(Cl)cc2)o1)c1ccc(S(C)(=O)=O)cc1 (stereo not given) | -26% | 18%
46 | COc1ccc(Nc2nc3c(S(=O)(=O)c4ccc(Br)cc4)nnn3c3ccsc23)c(OC)c1 | 47%[activator] | -27%
47 | CCN(CC)CCCNc1oc(/C=C/c2ccccc2OC)nc1C#N | -11% | 0%
48 | COc1cc2oc(=O)c(CC(=O)N3CCC(O)(c4ccc(Cl)cc4)CC3)c(C)c2cc1OC | 1% | -3%
49 | COc1ccccc1OCC(=O)c1c(C)[nH]c2ccccc12 | 48%[activator] | 0%
50 | CCc1ccc(S(=O)(=O)Nc2ccc3oc(C)c(C(=O)OCCOC)c3c2)cc1 | 199%[activator] | 1%
51 | COc1ccc(Br)cc1COC(=O)c1ccc(OC)c(OC)c1OC | 54%[activator] | 12%
52 | Clc1cccc(-c2nc(-c3ccncc3)no2)c1 | 3% | 106%[activator]
53 | O=C(CCCc1cccs1)N1CCCC1 | 8% | 138%[activator]
54 | CCN(CC)CCNC(=O)c1ccc(Cn2c(SCc3ccccc3)nc3ccncc32)cc1 | -15% | 8%
55 | Fc1ccc(CCNC(=S)NCc2ccc(Cl)cc2)cc1 | 106%[activator] | 36%[activator]
56 | Cn1c(=O)c2sc3c(c2n(CC(=O)c2ccccc2)c1=O)COC(C)(C)C3 | 4% | -4%
57 | Cc1ncsc1C(=O)NCc1ccc(N2CCCCCC2)nc1 | 13µM* | ?
58 | CCCCCc1ccc(C(=O)CC)cc1 | -11% | 1%
59 | CCOC(=O)c1ccc(CN(Cc2ccccc2C)S(=O)(=O)c2ccc(C(C)(C)C)cc2)cc1 | -2% | -23%
60 | CCCCCn1nc(C(=O)Nc2ccc3c(c2)CCC3)c2ccccc2c1=O | 7% | 60%[activator]
61 | Fc1cccc(COc2ccc(-c3nnco3)cc2)c1F | 36%[activator] | 213%[activator]
62 | COc1ccc(-c2ccc3c(N)c(C(=O)c4ccc(OC)c(OC)c4)sc3n2)cc1 | -15% | 9%
